PINK1 expr mod: modulators of PINK1 expression; Potency, µM (highest dose often 76.6 µM), for the others: at the top dose activation (PINK1 increase), actives largely listed as activators; hit rate 0.2% among 410,000; PINK1 immunofluorescence, high-content cytometry, 24 h; active = well fitted activation curve with a large enough effect; inconclusive = small, poorly fitted or top-dose-only effect; inactive = flat fitted curve, though single readings scatter; cell line not stated here;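 further: potency means the concentration at half of the fitted maximal effect; % of control where 0% means no effect; nearly all actives have a fitted effect of over 65% in size; a mitochondrial uncoupler was the plate control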
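Stable cell line, 250 cells/well, 12 h attachment; compounds pinned at 5 concentrations, 24 h; CCCP control. Fixed with nuclear dye, primary antibodies 12 h at 10 degrees C, secondary plus cell stain; laser-scanning cytometer read.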
gsp agonist: gsp mutant agonism. Potency, µM (top dose mostly 76.9 µM), for inactives: top-dose activation (cAMP increase), actives largely listed as activators. hit rate 0.13% among 340,000. AID 624287. gsp mutant cells, cAMP HTRF, 30 min; control for the full effect not named in the record; active = well fitted activation curve with a large enough effect; inconclusive = small, poorly fitted or top-dose-only effect, or another doubt; inactive = no such curve, though single readings can be large or run the other way; cell line not stated here;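 further: phosphodiesterase inhibitor Ro 20-1724 added with compounds to block cAMP breakdown; potency means the concentration at half of the fitted maximal effect; nearly all actives have a fitted effect of over 60% in size; about a fifth of the inactives were tested at one dose only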
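Cells in DMEM/10% FBS with G418 were pretreated with compounds in DMSO plus […] (300 uM stock) for 30 min at 37C. cAMP was measured by HTRF (cAMP-d2 plus anti-cAMP antibody-K) after 30 min at room temperature.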
gsp antag: antagonizes gsp, the McCune-Albright syndrome mutation. gsp-mutant cells, cAMP HTRF, 30 min; control for the full effect not named in the record. Potency, µM (doses to about 76.9 µM), without a hit: top-dose activity change, negative = inhibition, most hits filed as inhibitors. hit rate 0.4% among 340,000. AID 624288; active = falling curve of any shape with a large fitted effect; inconclusive = falling curve, mostly with a smaller effect; inactive = flat or rising curve; cell line not stated here;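 further: intracellular cAMP measured with PDE inhibitor Ro 20-1724 present during compound exposure; potency means the concentration at half of the fitted maximal effect; on the % scale 0 is the no-effect control and ±100 the full control effect; nearly all actives have a fitted effect of over 65% in size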
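Cells, 2000/well, grown 16–24 h in DMEM 10% FBS with 0.5 mg/ml G418, then compounds plus […] (300 uM addition stock), 30 min at 37C. cAMP read by HTRF (cAMP-d2 and anti-cAMP antibody-K in lysis buffer) after 30 min RT.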
D2 agonist: activates the human D2 dopamine receptor | activation, % (concentration not given with the values) | DiscoveRx PathHunter D2 beta-arrestin, luminescence, 90 min; 100% = 57 uM dopamine signal | P14416 | hit rate 0.084% among 360,000; in the data active = activation above about 40%; inconclusive = about 15% to 40%; inactive = below about 15%; further: compound concentration not given in the record; the text of the record calls up to 30% inactive
Target sequence (P14416 whole entry, looked up): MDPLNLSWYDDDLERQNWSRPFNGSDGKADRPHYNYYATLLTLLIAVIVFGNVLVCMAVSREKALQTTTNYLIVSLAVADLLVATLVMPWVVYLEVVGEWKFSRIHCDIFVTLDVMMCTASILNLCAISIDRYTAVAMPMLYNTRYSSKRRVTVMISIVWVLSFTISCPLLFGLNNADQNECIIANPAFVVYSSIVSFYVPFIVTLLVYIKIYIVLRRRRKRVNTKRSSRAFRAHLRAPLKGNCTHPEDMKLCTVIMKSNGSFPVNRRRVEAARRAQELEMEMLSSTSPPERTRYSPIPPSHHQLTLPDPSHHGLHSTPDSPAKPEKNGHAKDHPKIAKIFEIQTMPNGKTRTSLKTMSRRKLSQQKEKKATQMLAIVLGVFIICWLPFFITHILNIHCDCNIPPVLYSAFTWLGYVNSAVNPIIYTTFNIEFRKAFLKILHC
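DiscoveRx PathHunter D2 beta-arrestin cells (2,100/well) attached overnight, then compound-stimulated 90 min at 37 C in HBSS/10 mM HEPES/0.1% Tween-20 buffer; beta-galactosidase complementation read by luminescence after 1 h at ambient temperature. Dopamine 57 uM final (EC100) as control.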
Menin MLL FP FL: displaces fluorescein MLL peptide from human menin; FP activity change, % at 61.4 µM; Fluorescence polarization, fluorescein-MLL peptide displacement from menin; 290,000 tested, under 10 active; inconclusive = falling polarisation curve, or a change in total fluorescence; inactive = total fluorescence flat and polarisation flat or rising; no compound was filed as active; the % refers to the polarisation; negative = inhibition;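 further: % of control where 0% means no effect; inhibitors lower the polarisation; unlabelled MLL peptide was the positive control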
ClpP mod: qHTS Assay for Activators of ClpP; purified B. subtilis ClpP, FRET peptide cleavage, 20 min; Potency, µM (titrated, usually from 57.5 µM), for the others: at the top dose activity change, negative = active; hit rate 1.9% among 340,000; AID 651965, 2013; active = well fitted falling curve with a large enough effect; inconclusive = small, poorly fitted or top-dose-only effect; inactive = no such curve, though single readings can be large or run the other way; further: potency means the concentration at half of the fitted maximal effect; the source files actives as falling curves though it sought activators and does not explain the sign; nearly all actives have a fitted effect of over 65% in size; many hits overshoot -100%
Target sequence (P80244 whole entry, looked up): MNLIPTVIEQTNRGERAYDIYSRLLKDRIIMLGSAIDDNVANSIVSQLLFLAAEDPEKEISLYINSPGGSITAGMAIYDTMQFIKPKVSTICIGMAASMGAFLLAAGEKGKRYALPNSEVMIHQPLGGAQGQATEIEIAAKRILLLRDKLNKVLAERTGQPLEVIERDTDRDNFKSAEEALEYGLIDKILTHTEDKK
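ClpP 10 microg/mL final, pH 8 Tris/KCl buffer with BSA, glycerol, Tween-20; compound pinned in; FRET-FV substrate; RT 20 min; Ex320/Em430; ΔFRET vs ADEP 5.8 microM, DMSO, no enzyme.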
Sfp inh: Sfp phosphopantetheinyl transferase inhibition; hit rate 3.5% among 310,000; Potency, µM, inactives show max response, negative = inhibition, usual class: inhibitors; Q9F4F7; Biochemical Sfp PPTase activity, qHTS; active means well fitted inhibition curve with a large enough effect; inconclusive means small, poorly fitted or top-dose-only effect, or another doubt; inactive means no such curve, though single readings can be large or run the other way;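 further: the enzyme is Sfp with the accession as filed and its product quenches rhodamine fluorescence; potency means the concentration at half of the fitted maximal effect; 0% = enzyme reaction without inhibitor and -100% = no enzyme wells; top concentration of the series not given in the record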
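Sfp 15 nM + cpd, 15 min RT; start w/ rhodamine-CoA 5 uM, BHQ-2-YbbR 12.5 uM (final); 50 mM Hepes pH 7.6, 10 mM MgCl2, 0.01% NP-40, 0.01% BSA; read 525/598 nm at 0 and 30 min.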
Starred values were filed as active, the others as inactive; ? = inconclusive; / = not tested or not shown; [ ] = another dose, or the depositor's remark. The order is random, and some 5.1% of all compounds hit somewhere here.

SMILES	PINK1 expr mod	gsp agonist	gsp antag	D2 agonist	Menin MLL FP FL	ClpP mod	Sfp inh
Cc1cccc(CCNC(=O)C2CCC(CNS(=O)(=O)c3cccs3)CC2)c1 (stereo not drawn)	9.3%	-36%[15.4 µM]	7%	-0.5	1.1	/	17%
Cn1c(-c2ccccc2)cc2c3no[n+]([O-])c3ccc21	-0.3%	?	-5%	7.4	3.2	2.5%	12%
CCCCC(O)(CCCC)C(=O)NN(C(=O)OC)c1ccccc1	-0.8%	10%[15.4 µM]	5%	-6.3	-1.8	-1.8%	4%
Cc1ccc(S(=O)(=O)N2CCSCCSCCSCCSCC2)cc1	0.1%	-4%	-21%	-1.2	/	?	/
O=C(CS(=O)(=O)c1ccccc1)Nc1ccc(S(=O)(=O)Nc2ccccn2)cc1	-0.6%	15%	1%	2.3	-4.8	-21%	10%
O=C(c1ccccc1NS(=O)(=O)c1ccc(Cl)cc1)N1CCc2ccccc21	-1.6%	7%	-9%	0.8	4.7	0.6%	16%
Cc1nc(Nc2ccccc2Cl)sc1C(=O)Nc1ccccc1	-2.5%	-43%[inhibitor]	?	3.3	-0.3	-7.7%	-14%
Cc1nc([N+](=O)[O-])c(Br)n1CC(=O)c1ccc(Cl)cc1	-4.9%	-6%	6%	2.5	-0.2	-7.7%	5%
C=CCSC1=NC(N)=C(C#N)C2(CCCCC2)C1C(N)=O (stereo not drawn)	-7.8%[38.3 µM]	5%	-4%	-1.0	-2.7	0.0%	2%
CCN1CCN(c2nc3c(C)cccn3c(=O)c2/C=C(\C#N)S(=O)(=O)c2ccc(C)cc2)CC1	-1.4%	27%	0%	-2.4	?	3.1%	-13%
C=CCn1c(CCSCc2ccc(OC)c(C)c2)n[nH]c1=S	1.6%	6%	4%	-2.3	-2.1	-0.6%	11%
COc1ccc(Oc2nnnn2-c2ccccc2)cc1	-0.3%	23%	-1%	-2.4	-0.4	1.4%	22%
Nc1nc[nH]c(=O)c1N=Cc1ccccc1	1.0%	24%[15.4 µM]	5%	-0.8	-0.4	/	-6%
Cc1ccc(Cn2nc(C)c(NC(=O)c3cc(-c4ccc5c(c4)OCO5)on3)c2C)cc1	13%[38.3 µM]	-21%	4%	8.9	-0.2	-4.6%	-11%
COc1cccc(NC(=O)c2ccccc2-c2nc(-c3ccccc3)no2)c1	1.9%	?	-14%	0.2	1.2	-2.6%	2%
CC(C)(C)NC(=O)CSc1nncn1NCc1c(Cl)cccc1Cl	2.7%	-21%	-5%	-3.5	2.8	0.5%	11%
C[C@H]1CN=C(Nc2ccccc2)N1CCCC1CCCCC1	0.9%	7%	9%	-1.2	1.4	-0.6%	7%
C=CCOc1c(Cl)cc(C2NC(=O)NC(C)=C2C(=O)OC)cc1Cl (stereo not drawn)	/	24%	1%	9.7	0.8	-4.1%	21%
CCCCN(CCCC)/C(N)=N/c1nc(C)cc(C)n1	3.9%	-6%[15.4 µM]	-21%	-1.5	-3.3	1.3%	16%
O=C(NNc1cccc(Cl)n1)c1ccc(Cl)nc1	-1.6%	-1%[15.4 µM]	-1%	-4.5	-1.1	/	-3%
O=C(c1ccc(CS(=O)Cc2ccccc2Cl)o1)N1CCN(C2CCCCC2)CC1 (stereo not drawn)	-1.8%	9%	3%	-1.1	-3.4	2.2%	16%
Cc1ccc(S(=O)(=O)N2CCOCC2)cc1NC(=O)c1ccncc1	1.6%	-64%[inhibitor]	/	-3.7	/	-1.3%	/
CC1(C2CC2)NC(=O)N(CC(=O)Nc2ccc(F)cc2F)C1=O (stereo not drawn)	-0.9%	-41%[inhibitor]	-1%	-1.0	/	0.9%	/
CCCCCCn1c(SCCC)nc2c1c(=O)[nH]c(=O)n2C	3.4%	-46%	-2%	-0.4	-0.4	3.7%	-3%
N=c1c(C(=O)NCC2CCCO2)cc2c(=O)n3ccccc3nc2n1Cc1cccnc1 (stereo not drawn)	0.3%	?	21%	-2.0	-4.9	64%	6%

Later entries.
SMILES	PINK1 expr mod	gsp agonist	gsp antag	D2 agonist	Menin MLL FP FL	ClpP mod	Sfp inh
CCOc1ccc(C(=O)Nc2ccccc2N2CCOCC2)cc1	-1.5%	-62%[inhibitor]	-7%	-3.6	5.0	-9.7%	-2%
CCn1cc(CNCc2cn(-c3ccccc3C)nc2-c2ccc(OC)c(F)c2)cn1	-1.3%	-9%[15.4 µM]	4%	-0.2	-1.2	1.6%	12%
Cc1ccc(CSc2ccc(S(=O)(=O)N3CCOCC3)cn2)cc1	0.7%	-28%	17%	2.8	/	1.0%	/
O=C(NCc1nnc2c3ccccc3c(-c3ccccc3)nn12)c1ccc(Cl)cc1	-2.2%	51%[15.4 µM]	?	-3.3	/	/	?
O=C(CSc1nc(-c2ccco2)cc(C(F)(F)F)n1)N1CCN(c2cccc(Cl)c2)CC1	-1.8%	14%	-31%	-3.6	2.9	-6.5%	3%
OC(c1cccnc1)c1nc(-c2cccc(F)c2)cs1 (stereo not drawn)	-0.2%	/	/	-0.9	/	-1.2%	/
CCOc1ccc(NC(=O)CN(C)C(=O)CCSc2ccc(F)cc2)cc1OCC	0.2%	4%	-9%	6.8	/	-3.4%	/
Cc1ccc2cc(C3CC(c4ccco4)=NN3C(=O)CCC(=O)O)c(Cl)nc2c1 (stereo not drawn)	-1.1%	-12%	-15%	0.7	-0.8	-1.8%	0%
Cc1ccccc1NC(=O)CCN1CCN(C)CC1	-1.6%	-16%	10%	-3.5	-1.7	-0.2%	14%
COC(=O)C(CSCc1ccccc1)NC(=O)CSc1nc(N)cc(=O)[nH]1 (stereo not drawn)	-1.4%	-2%	6%	-0.3	0.4	/	-16%
CN1C(C)(C)c2ccccc2OS1(=O)=O	1.0%	/	5%	1.0	-2.1	1.2%	10%
CCC(C)(C(=O)NC1CCCCC1)N(C(=O)c1cnccn1)c1c(C)n(C)n(-c2ccccc2)c1=O (stereo not drawn)	-2.8%	-36%[inhibitor]	-4%	-2.0	-2.8	-0.7%	10%
COc1ccc(/C=N/NC(=O)c2ccc(COc3cccc4cccnc34)cc2)cc1OC	-2.3%	0%	12%	0.8	0.6	/	25%
O=C(CN1CCOCC1)NCc1ccc(F)cc1	-0.3%	0%	-5%	-0.1	8.2	1.4%	-2%
CC(C)Cn1c(N)c(C(=O)COC(=O)c2ccc3ccccc3n2)c(=O)n(C)c1=O	1.3%	2%	0%	-2.6	2.8	-9.5%	3%
O=C(CSc1ccc(-c2ccccc2)nn1)NCC1CCCO1 (stereo not drawn)	0.5%	-2%[15.4 µM]	6%	-3.6	0.3	-1.0%	4%
COc1cccc(C(=O)N2CCN(C(=O)C3CC3)CC2)c1	-0.7%	9%	6%	-2.9	-1.3	/	9%
CC(C)Cc1nnc(NC(=O)CCN2C(=O)c3ccccc3C2=O)s1	2.6%	15%	6%	0.0	0.8	-0.9%	6%
CC(c1nccs1)N(C)C(=O)c1cn(Cc2cccc3ccccc23)nn1 (stereo not drawn)	3.5%	?	-6%	-2.4	0.3	1.7%	5%
Cc1ccc(C)c(NC(=O)c2cnccn2)c1	0.4%	-6%[15.4 µM]	-1%	2.0	-2.0	1.3%	-1%
CCCn1nnnc1NCc1cccn1C	0.9%[38.3 µM]	0%	2%	-2.6	2.5	-2.5%	-11%
CCNS(=O)(=O)c1ccc(NC(=O)c2cc(C(F)(F)F)nn2C)cc1	2.4%	-18%	6%	3.8	1.0	-2.3%	11%
CC1CC(C)CN(S(=O)(=O)c2ccc(NN)nc2)C1 (stereo not drawn)	4.1%	-13%[15.4 µM]	9%	-5.4	1.9	/	?
CCOC(=O)c1nnn(-c2nonc2N)c1-c1cccs1	3.8%	25%	-5%	1.1	0.7	-4.0%	10%
NC(=O)NCc1ccc(Cl)cc1	?	8%	11%	-1.5	-0.4	-1.1%	5%

(more compounds)
SMILES	PINK1 expr mod	gsp agonist	gsp antag	D2 agonist	Menin MLL FP FL	ClpP mod	Sfp inh
Cc1nc(NC(=O)CSc2nnc3ccccn23)c(Cl)cc1Cl	-1.6%	?	8%	-2.4	4.6	-9.0%	-3%
O=C1CC(c2ccccc2)C(=O)N1c1cccc(O)c1 (stereo not drawn)	1.1%	-45%[inhibitor]	-5%[15.4 µM]	-0.5	1.0	-1.8%	11%
COc1cccc(S(=O)(=O)N(C)C[C@H]2Oc3cc(Br)ccc3S(=O)(=O)N([C@@H](C)CO)C[C@H]2C)c1	-1.6%	-3%	/	2.7	/	-1.7%	/
O=C(C1CCN(S(=O)(=O)c2ccc(Br)s2)CC1)N1CCN(C2CCCCC2)CC1	3.2%	19%	-1%	5.8	-8.2	/	-8%
O=C1N/C(=N\c2ccccn2)SC1Cc1ccc(Cl)cc1 (stereo not drawn)	13%	-8%[15.4 µM]	3%	-2.6	-0.3	/	23%
CC(C)(C)NC(=O)NC(=O)COC(=O)CCCc1c[nH]c2ccccc12	-21%[38.3 µM]	28%	-2%	-1.1	0.7	-3.1%	8%
Nc1cccc(-c2c[nH]c3ncc(-c4cccnc4)cc23)c1	-0.7%	-8%	10%	1.1	/	-1.7%	/
Cc1cc(-n2cnc3c(=O)[nH]cnc32)ccc1N	1.7%	-27%	9%	-3.0	-0.6	1.7%	9%
N#Cc1c(NC(=O)Cn2nc(C(F)(F)F)c3c2CCCC3)sc2c1CCC2	-0.5%	-19%	-2%	-2.4	-0.8	-6.0%	?
CCOC(=O)C1=C(COc2ccccc2)NC(=O)NC1c1ccc(Cl)cc1 (stereo not drawn)	1.5%	/	-5%	0.9	-1.3	0.3%	2%
CN1C(=O)CC(c2ccccc2)CC1=O	3.0%	/	9%	-6.8	/	-2.6%	/
CC(=O)Nc1c(O)nc(SCC(=O)N2CCN(c3ccc(F)cc3)CC2)[nH]c1=O	0.6%[38.3 µM]	-35%	9%	0.1	-2.9	-0.5%	13%
CC(C)OC(=O)CSc1nc2cccnc2n1C1CCCCC1	1.9%	-27%	-21%	-2.7	0.0	-0.6%	-18%

Screens as filed in PubChem BioAssay.
